Assay outcomes as filed in PubChem BioAssay.
BJeLR viability – BJeLR cell viability loss; BJeLR (HRASV12) viability, CellTiter-Glo ATP luminescence, 48 h; reference of the scale not given here; inhibition, % (no concentration beside the values); hit rate 0.17% among 300,000; AID 1554;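 active = replicate mean above 50%; inconclusive = above 50% but judged a plate artefact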;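 also: 50 nL library stock added to about 25 µL; numbers are from one replicate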
Mtb hypoxia inh – inhibitors of hypoxia-regulated fluorescent reporter in Mycobacterium tuberculosis. AID 1159583. M. tuberculosis hypoxia-regulated fluorescent reporter, fluorescence. hit rate 0.1% among 300,000. fluorescence inhibition, % (no concentration beside the values);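 active = 35 to 45% if threefold the growth effect, above 45% if 1.5-fold the growth effect; inactive = the rest, general growth blockers included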;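 also: wells of about 50 µL received 100 nL stock; 0% = vehicle wells and 100% = reference inhibitor wells; whole bacteria with a GFP reporter of the hypoxia response; strong numbers were not always called active; many hits fall short of the cut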
PrP 5UTR inh – inhibition of PrP 5' UTR reporter expression; AID 488862; inhibition, % (test concentration not listed); cell-based PrP 5' UTR mRNA reporter, plate reader; hit rate 0.35% among 340,000;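 active = every replicate at 50% or more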;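 also: 0 = median of the neutral control wells; tested in H4 reporter cells; numbers are from one replicate; inactives centre near -14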
RN4220 kill – kills Staphylococcus aureus RN4220 | S. aureus RN4220 growth, OD600, 16 h | inhibition, % (test concentration not listed) | hit rate 0.33% among 330,000;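 active = z-score of -3 or lower and OD600 up to 0.18 on both plates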;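 also: plate controls were untreated cells for no effect and reference antibiotic for full effect; stock transfer was 100 nL into about 80 µL; one replicate is shown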
Bead autofluor – flagged as autofluorescent in microsphere protease counterscreen | compound autofluorescence counterscreen, microsphere flow cytometry; hits give high values | fluorescence intensity (concentration not given with the values) | hit rate 3.1% among 360,000;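 active = at least 3 SD above the mean of all compounds, about 16000 in these data; inconclusive = too few beads counted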;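 also: 100 nL of 1 mM stock went into each well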
ugtP null kill – compounds lethal to S. aureus RN4220 ugtP deletion mutant; OD600 growth, 16 h; some inactives read as strong as hits; growth inhibition, % (no concentration beside the values); AID 1259309; hit rate 0.54% among 330,000;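 active = z-score under -3 and OD600 up to 0.15 on both plates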;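 also: plate controls were untreated wells for no effect and antibiotic for full effect; wells of about 80 µL received 100 nL stock; the first replicate is given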
Mtb hypoxia inh growth – recorded beside Mtb hypoxia inh, whose call it bears; growth inhibition, %; measured here: M. tuberculosis growth (absorbance);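 0% = vehicle and 100% = reference antibiotic; read after six days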
Starred values were filed as active, the others as inactive; ? = inconclusive; nt = no result given.

SMILES,Mtb hypoxia inh growth,Mtb hypoxia inh,PrP 5UTR inh,BJeLR viability,Bead autofluor,RN4220 kill,ugtP null kill
CCn1cc(C(=O)N2CCOCC2)c(=O)c2cc(S(=O)(=O)N(C)C)ccc21,nt,nt,-27,-16,5147,2.8,8
COc1cccc2c1Oc1ncccc1N(C(=O)CCC(=O)NCc1ccc(F)cc1)C2,1,11,4,2,4581,2.7,10
Cc1c(Cc2ccccc2)c(=O)oc2cc(OCC(=O)c3ccccc3)ccc12,4,10,-19,-23,2433,-1.4,-7
COCCn1c(SCC(=O)NNC(=O)c2cc(Cl)ccc2OC)nnc1-c1ccncc1,2,2,1,nt,8150,2.7,0
Cc1c(C(=O)NC(C(C)C)C(C)C)cccc1[N+](=O)[O-],3,14,-39,2,1948,7.5,3
Cc1ccc(C(=O)/C=C/c2cn(CC(O)CN3CCOCC3)c3ccccc23)cc1 (stereo not given),2,8,-15,nt,2168,4.1,-3
COCCNC(=O)CN(C)S(=O)(=O)c1ccc2c(c1)OCCO2,9,0,0,-5,3921,3.0,3
O=C(c1ccc(Sc2ccc(F)cc2)c([N+](=O)[O-])c1)N1CCOCC1,16,-5,-14,9,4499,3.0,0
CN(C)/C=C/C(=O)c1cccc(C(F)(F)F)c1,5,-8,-17,-5,4761,0.0,-8
O=c1c2ccccc2ncn1-c1ccc2c(c1)OCCO2,7,3,-41,4,10286,4.5,2
CCOC(=O)C1=C(COC(=O)COc2ccc(C#N)cc2)NC(=O)NC1C (stereo not given),1,5,-3,1,6060,7.9,2
O=C(CSc1ncn[nH]1)N1CCN(S(=O)(=O)c2ccccc2)CC1,11,5,0,-6,2441,2.8,2

More entries.
SMILES,Mtb hypoxia inh growth,Mtb hypoxia inh,PrP 5UTR inh,BJeLR viability,Bead autofluor,RN4220 kill,ugtP null kill
CCN(CC)P(=O)(Nc1ccc([N+](=O)[O-])cc1)c1c(C)nn(CCC#N)c1NC(=O)c1ccc(Cl)cc1 (stereo not given),7,6,-25,3,3957,1.9,10
COC(=O)c1cc(NC(=O)Cc2ccccc2[N+](=O)[O-])ccc1Cl,1,-7,-18,2,2621,0.6,0
CC(C)Cc1cc(C(=O)NCc2ccco2)no1,nt,nt,-46,-4,5041,3.1,9
O=C(NCCCN1CCCC1=O)C1CCN(S(=O)(=O)c2cc(C(F)(F)F)ccc2Cl)CC1,-2,6,-30,nt,9053,4.9,4
CC(C)[C@H](NC(=O)c1ccccc1)C(=O)OCC(=O)Nc1ccc(Cl)cc1C(F)(F)F,7,5,-22,-16,7886,1.3,1
CCn1cc(CN2CCN(Cc3ccccc3)C(CCO)C2)c2ccccc21 (stereo not given),6,-15,-4,3,4246,-2.7,-5
Cc1cc(Cl)ccc1NC(=S)NCCN1CCOCC1,4,9,-17,6,2455,1.8,-2
O=C(CCCn1c(=S)[nH]c2ccc(Br)cc2c1=O)NCc1ccccn1,0,8,-10,-1,6274,4.6,8
Cn1c(N)c(C(=O)COC(=O)c2cc(S(=O)(=O)N3CCOCC3)ccc2F)c(=O)n(C)c1=O,7,6,-7,nt,8722,8.4,5
COc1cc(C(=O)NC2CCCC2)c(Br)c(OC)c1OC,5,18,-21,9,2507,8.9,5
O/N=C1/CCCCC1c1ccccn1 (stereo not given),nt,nt,-8,9,5191,nt,nt
O=C(NCc1ccccc1)c1ccc2c(c1)C(=O)N(Cc1ccncc1)C2=O,nt,nt,-44,-5,2628,-3.3,6

Remaining list, next part:
SMILES,Mtb hypoxia inh growth,Mtb hypoxia inh,PrP 5UTR inh,BJeLR viability,Bead autofluor,RN4220 kill,ugtP null kill
CSc1nc(N)nc(SC2C=CCCC2)c1C#N (stereo not given),3,8,-37,6,7613,7.4,7
Cc1ccc2nc(-c3ccccn3)cc(C(=O)NC(C)C(C)(C)C)c2c1 (stereo not given),-6,8,-32,2,4236,-2.3,6
O=C(OCc1cc2ccccc2[nH]c1=O)c1ccco1,7,2,-12,8,7972,8.3,-5
COc1ccc(Cc2n[nH]c(=S)n2NC(=O)Nc2ccc(C)cc2)cc1,14,7,-35,4,3498,3.6,1
CC(=O)SCC(Cc1ccccc1)C(=O)NCC(=O)OCc1ccccc1 (stereo not given),3,3,nt,-1,nt,6.1,5
O=[N+]([O-])c1cc(/C=N/N2CCN(Cc3ccccc3)CC2)ccc1Cl,nt,nt,4,7,3529,nt,nt
CC(=O)Nc1ccc(S(=O)(=O)Nc2nccc(C3Cc4ccccc4C(=O)O3)n2)cc1 (stereo not given),-5,2,-17,-8,10164,5.7,12
COc1ccc(C2CC(c3cccs3)=Nc3ccccc3S2)cc1OC (stereo not given),5,6,-38,-3,5444,12,-3
C[C@H]1[C@H](OC(=O)CCC(=O)NCc2ccc(C(=O)O)cc2)O[C@@H]2O[C@@]3(C)CC[C@H]4[C@H](C)CC[C@@H]1C24OO3,nt,nt,-18,9,4087,nt,nt
CCOc1ccccc1N1CCN(C(=O)c2cc(S(=O)(=O)N(C)C)ccc2N2CCCC2)CC1,2,6,-11,nt,?,2.5,3
COC(=O)c1ccc(-n2ccnc2)cc1,3,1,-20,-8,2677,6.4,4
Cc1ccccc1-c1ccc(C=Nc2c(C)n(C)n(-c3ccccc3)c2=O)o1,7,18,-7,-9,3940,4.3,-5

Individual results from above:
Reading for COC(=O)c1ccc(-n2ccnc2)cc1 in Bead autofluor: 2677
Reading for Cc1ccccc1-c1ccc(C=Nc2c(C)n(C)n(-c3ccccc3)c2=O)o1 in Bead autofluor: 3940
Reading for COc1ccc(C2CC(c3cccs3)=Nc3ccccc3S2)cc1OC (stereo not given) in RN4220 kill: 12
Reading for C[C@H]1[C@H](OC(=O)CCC(=O)NCc2ccc(C(=O)O)cc2)O[C@@H]2O[C@@]3(C)CC[C@H]4[C@H](C)CC[C@@H]1C24OO3 in BJeLR viability: 9
Reading for Cc1ccc2nc(-c3ccccn3)cc(C(=O)NC(C)C(C)(C)C)c2c1 (stereo not given) in PrP 5UTR inh: -32
Reading for CC(=O)SCC(Cc1ccccc1)C(=O)NCC(=O)OCc1ccccc1 (stereo not given) in Mtb hypoxia inh growth: 3
Reading for COc1ccc(Cc2n[nH]c(=S)n2NC(=O)Nc2ccc(C)cc2)cc1 in ugtP null kill: 1

Further structures follow.
SMILES,Mtb hypoxia inh growth,Mtb hypoxia inh,PrP 5UTR inh,BJeLR viability,Bead autofluor,RN4220 kill,ugtP null kill
Cc1csc(C(C#N)C(=O)c2ccncc2)n1 (stereo not given),nt,nt,-9,0,2767,0.6,-1
O=C(N/N=C/c1c(F)cccc1Cl)C(=O)N1CCCCCC1,nt,nt,0,-2,3871,nt,nt
CCCCNC(=O)c1sc2ncnc(N3CCc4ccccc4C3)c2c1C,12,2,-20,5,10137,-2.4,-12
Cc1c(C(=O)N2CCCCC2CCN2CCCC2=O)oc2c(F)cccc12 (stereo not given),-1,2,3,1,4326,6.6,13
Cc1nn(CCO)c2ncc(C(=O)c3cc(F)ccc3O)cc12,-1,-12,-10,-17,5087,3.8,0
CN(C)C(=O)c1ccc(NC(=O)COc2ccc([N+](=O)[O-])cc2)cc1,16,12,-3,6,4137,-0.9,3
COc1cccc(CC(CC(=O)O)C(=O)Nc2cc(C)ccc2C)c1 (stereo not given),16,6,-17,-2,3963,3.2,5
O=C(CN1CCCCC1)Nc1ccc(S(=O)(=O)NC2CCCCC2)cc1,2,2,4,3,5948,5.9,1
COc1ccc(C#Cc2c(C=O)n(C)c3ccccc23)cc1,12,15,-20,nt,2829,1.5,100*
CCc1ccc2c(CN3CCN(S(=O)(=O)c4ccccc4F)CC3)cc(=O)oc2c1,13,2,8,nt,3775,2.2,9
O=C(c1ccccc1)n1nc(-c2ccccc2)nc1NCc1ccco1,7,3,-26,7,5775,1.5,-4
CCCCc1cc(=O)oc2c(C)c(OCC(=O)N3C[C@H]4C[C@@H](C3)c3cccc(=O)n3C4)ccc12,nt,nt,-20,7,5836,-1.8,7

Remaining list, next part:
SMILES,Mtb hypoxia inh growth,Mtb hypoxia inh,PrP 5UTR inh,BJeLR viability,Bead autofluor,RN4220 kill,ugtP null kill
CC(=O)C1=C(c2ccc(Br)cc2)C(=O)c2ccccc2C1=O,5,3,-13,29,9543,97*,97*
Cc1ccc(S(=O)(=O)n2nc(-c3ccco3)nc2SCc2ccccc2)cc1,nt,nt,-3,-5,4099,-0.7,5
N#Cc1cc(F)c(N2CCNCC2)cc1Cl,nt,nt,-23,-12,3870,1.6,4
CCn1c2ccc(CC(=O)O)cc2c2cc(CC(=O)O)ccc21,0,4,-8,-11,7820,2.6,2
CNC(=O)COC(=O)c1cccnc1SC,nt,nt,-7,-8,2275,1.7,4
O=C(NC1CCCC1)C1CCN(C(=O)c2ccc(Cl)cc2)CC1,4,1,-6,-1,3723,4.0,8
Cc1cccc(NC(=O)c2nc[nH]c2C(=O)NCc2ccccc2)c1,8,14,-15,nt,3328,6.2,-3
CC(=O)c1sc(NC(=O)c2c(F)cccc2F)nc1-c1ccccc1,7,-4,-35,-8,2145,7.4,9
CCC(=O)N/C(N)=N/c1nc(C)c2cc(C)c(C)cc2n1,1,8,nt,2,6324,3.1,6
O=C(Nc1nnc(SCc2ccc(F)cc2)s1)c1ccccn1,10,6,12,11,5354,98*,99*
c1ccc2c(c1)ccn2CCCN1CCCCC1,3,9,-9,nt,4054,-1.3,-2
S=C(NCCN1CCOCC1)Nc1ccc(Br)cc1,-2,2,-25,-1,2042,-2.1,8

Following part
SMILES,Mtb hypoxia inh growth,Mtb hypoxia inh,PrP 5UTR inh,BJeLR viability,Bead autofluor,RN4220 kill,ugtP null kill
COC(=O)Cn1c(=O)c2c(nc3n2CCCN3CCc2ccc(OC)c(OC)c2)n(C)c1=O,-7,1,-2,10,2802,-0.4,10
Cc1ccc(-c2c(C(=O)N/N=C/c3ccc(OC(C)C)cc3)nnn2-c2nonc2N)cc1,nt,nt,-5,6,4459,nt,nt
Cc1cccc(N2CCN(C(=O)COc3cccc4c3OC(C)(C)C4)CC2)c1C,9,3,-30,-10,2164,8.7,-10
CCOC(=O)c1ccc(-c2ccc(CO)o2)cc1,-1,10,-116,1,9910,4.3,-7
Cc1cc(NC(=O)CSCCO)no1,9,18,-15,-2,8776,5.8,9
CCn1cc(C(=O)N2CCc3ccccc32)c(=O)c2cc(S(=O)(=O)N3CCOCC3)ccc21,5,4,-16,-1,8978,1.8,5
O=C(NC(=S)Nc1cc([N+](=O)[O-])ccc1O)c1cccnc1,9,7,55*,2,4013,11,11
O=C(CNC(=O)c1cc(Cl)cc([N+](=O)[O-])c1)NC1CC1,8,23,-16,nt,4026,4.4,2
NC(=O)COC(=O)c1cccc2c1-c1ccccc1C2=O,nt,nt,-21,3,3373,nt,nt
Cc1cc2nnc(SCc3ccccc3)n2c(N)n1,8,7,-19,3,11834,1.1,-4
COc1ccccc1N(CC(O)COc1ccc(C)cc1)S(=O)(=O)c1ccccc1 (stereo not given),8,-1,-5,-2,2367,13,7
Cc1onc(-c2ccccc2Cl)c1C(=O)NNC(=O)c1nn(C)cc1Cl,3,5,-4,-1,4896,1.6,-2

More compounds:
SMILES,Mtb hypoxia inh growth,Mtb hypoxia inh,PrP 5UTR inh,BJeLR viability,Bead autofluor,RN4220 kill,ugtP null kill
COc1ccc(S(=O)(=O)N2CCN(CC(=O)N3c4ccccc4CC3C)CC2)cc1OC (stereo not given),-3,9,-7,nt,6672,6.9,5
CCN(CCCNC(=O)C1CCN(S(=O)(=O)N2CCC3(CC2)OCCO3)CC1)c1ccccc1,-4,-8,-1,2,9549,5.6,2
CCN1C(=O)/C(=C/N(C(C)=O)c2ccccc2)N(c2ccccc2)C1=S,nt,nt,-7,7,2425,0.7,3
Cc1csc(NC(=O)CSc2nc(=O)n(CCCN(C)C)c3c2CCC3)n1,9,7,3,3,6576,1.9,5

Reformatted with values under each structure: entries from further up.
Every second line gives: Mtb hypoxia inh growth | Mtb hypoxia inh | PrP 5UTR inh | BJeLR viability | Bead autofluor | RN4220 kill | ugtP null kill
- CCN(CCCNC(=O)C1CCN(S(=O)(=O)N2CCC3(CC2)OCCO3)CC1)c1ccccc1
    -4 | -8 | -1 | 2 | 9549 | 5.6 | 2
- COc1ccc(S(=O)(=O)N2CCN(CC(=O)N3c4ccccc4CC3C)CC2)cc1OC (stereo not given)
    -3 | 9 | -7 | nt | 6672 | 6.9 | 5
- CCN1C(=O)/C(=C/N(C(C)=O)c2ccccc2)N(c2ccccc2)C1=S
    nt | nt | -7 | 7 | 2425 | 0.7 | 3
- Cc1csc(NC(=O)CSc2nc(=O)n(CCCN(C)C)c3c2CCC3)n1
    9 | 7 | 3 | 3 | 6576 | 1.9 | 5

Not a hit list. Share with any hit: about 4%.
